# motility = Vibrio cholerae motility inhibitors, OD read-out (AID 588778). Vibrio cholerae motility, OD read-out; higher % means a stronger effect; test concentration not given here; primary cut-off and reference of the scale not given here; strong numbers were not always called active. one-dose inhibition, %; IC50 in µg/mL for titrated hits. 10,000 tested, under 10 active; in the data active = confirmed in a dose series
# motility viability = second read-out of motility, no call of its own (marks repeat the call); inhibition, %; measured here: bacterial viability at 10 ug/mL;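 higher means fewer living bacteria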
# Numbers without * were called inactive. An excerpt (hit frequency here may not be typical).
# The first 23 entries (preview)
molecule	motility	motility viability
O=C(Nc1nnc(C2CC2)s1)c1csc2ccccc12	-19%	1
COC(=O)CNc1cccc(C(F)(F)F)c1	13%	19
Cc1cccc(C(O)(C(=O)NNC(=O)CN2CCN(C)CC2)c2cccc(C)c2)c1	9%	0
CC(CCc1ccccc1)NC(=O)c1cccnc1 (centres undefined)	14%	-2
O=C(CCNc1ccc(Cl)c(C(F)(F)F)c1)c1cccs1	-16%	2
CCCCn1nnc(NC(=O)CCC)n1	24%	16
COc1ccc(CCC(=O)Nc2cccnc2)cc1	-2%	-1
COc1ccc(-c2cc(C(=O)NC(C)c3ccccc3)c3ccccc3n2)c(OC)c1 (centres undefined)	13%	-1
CCc1cc(/C(O)=C/c2nc3ccccc3n2C)c(O)cc1OC(=O)C(C)(C)C	12%	2
CC1=C(C#N)C(NC(=O)c2ccco2)(C(F)(F)F)C(=O)N1 (centres undefined)	-6%	2
CCOC(=O)C(c1ccccc1)N1CCN(c2ccccc2F)CC1 (centres undefined)	-2%	6
COc1ccc(Cn2c(C)ccc2C)cc1	-1%	0
O=C(O)c1cc(NC(=O)c2ccccc2F)ccc1O	1%	-5
COc1ccc(CCNC(=O)C(C)Sc2nnc(-c3cc(Cl)ccc3O)n2C)cc1OC (centres undefined)	-7%	-3
Cc1nnc(SCC(=O)Nc2nsc(-c3ccc(Cl)cc3)n2)s1	1%	-2
CCCCc1nc(SCC(=O)NCc2ccccc2)c2c3c(sc2n1)COC(C)(C)C3	-2%	24
COc1ccccc1-c1nnc(SCC(=O)NC23CC4CC(CC(C4)C2)C3)o1	21%	6
CC(C)(C)OC(=O)NNC(=S)NCc1ccc(Cl)cc1	4%	-3
COc1ccc(Br)cc1C(=O)NNC(=O)c1cccnc1	10%	27
CCOC(=O)c1[nH]cnc1C(=O)Nc1cccc(Cl)c1	15%	2
Cc1cc(C(=O)NCc2ccco2)cs1	-3%	4
COC(=O)Cc1ccc(NC(=O)CSc2ccc(C)cc2)cc1	12%	0
CCC(C)c1ccccc1NC(=S)NC(=O)c1ccc(OC)c(Cl)c1 (centres undefined)	-8%	-5

# Results, repeating the preview:
molecule	motility	motility viability
O=C(Nc1nnc(C2CC2)s1)c1csc2ccccc12	-19%	1
COC(=O)CNc1cccc(C(F)(F)F)c1	13%	19
Cc1cccc(C(O)(C(=O)NNC(=O)CN2CCN(C)CC2)c2cccc(C)c2)c1	9%	0
CC(CCc1ccccc1)NC(=O)c1cccnc1 (centres undefined)	14%	-2
O=C(CCNc1ccc(Cl)c(C(F)(F)F)c1)c1cccs1	-16%	2
CCCCn1nnc(NC(=O)CCC)n1	24%	16
COc1ccc(CCC(=O)Nc2cccnc2)cc1	-2%	-1
COc1ccc(-c2cc(C(=O)NC(C)c3ccccc3)c3ccccc3n2)c(OC)c1 (centres undefined)	13%	-1
CCc1cc(/C(O)=C/c2nc3ccccc3n2C)c(O)cc1OC(=O)C(C)(C)C	12%	2
CC1=C(C#N)C(NC(=O)c2ccco2)(C(F)(F)F)C(=O)N1 (centres undefined)	-6%	2
CCOC(=O)C(c1ccccc1)N1CCN(c2ccccc2F)CC1 (centres undefined)	-2%	6
COc1ccc(Cn2c(C)ccc2C)cc1	-1%	0
O=C(O)c1cc(NC(=O)c2ccccc2F)ccc1O	1%	-5
COc1ccc(CCNC(=O)C(C)Sc2nnc(-c3cc(Cl)ccc3O)n2C)cc1OC (centres undefined)	-7%	-3
Cc1nnc(SCC(=O)Nc2nsc(-c3ccc(Cl)cc3)n2)s1	1%	-2
CCCCc1nc(SCC(=O)NCc2ccccc2)c2c3c(sc2n1)COC(C)(C)C3	-2%	24
COc1ccccc1-c1nnc(SCC(=O)NC23CC4CC(CC(C4)C2)C3)o1	21%	6
CC(C)(C)OC(=O)NNC(=S)NCc1ccc(Cl)cc1	4%	-3
COc1ccc(Br)cc1C(=O)NNC(=O)c1cccnc1	10%	27
CCOC(=O)c1[nH]cnc1C(=O)Nc1cccc(Cl)c1	15%	2
Cc1cc(C(=O)NCc2ccco2)cs1	-3%	4
COC(=O)Cc1ccc(NC(=O)CSc2ccc(C)cc2)cc1	12%	0
CCC(C)c1ccccc1NC(=S)NC(=O)c1ccc(OC)c(Cl)c1 (centres undefined)	-8%	-5
Cc1cc(C)n(CC(=O)Nc2nc3c(s2)CCCC3)n1	-13%	-3
O=C(Oc1ccccc1[N+](=O)[O-])c1ccccc1I	-5%	-4

# Of the compounds above, two have a furan ring, fused or not:
molecule	motility	motility viability
CC1=C(C#N)C(NC(=O)c2ccco2)(C(F)(F)F)C(=O)N1 (centres undefined)	-6%	2
Cc1cc(C(=O)NCc2ccco2)cs1	-3%	4

# New compounds follow:
molecule	motility	motility viability
CC1CCN(CCOc2cccc(Br)c2)CC1	23%	0
COc1cccc(Nc2ccc(-n3ccnc3)nn2)c1	9%	1
O=S(=O)(NCc1ccco1)c1cccc2cccnc12	-3%	1
NC(=NCc1cccnc1)NC(=O)c1ccccc1	-2%	9
c1coc(CNc2nc(-c3ccncc3)cs2)c1	25%	5
Cc1ccccc1CNCCNCCO	-11%	5
NS(=O)(=O)c1ccc(CNC(=S)Nc2ccccc2C(F)(F)F)cc1	22%	25
Cc1ccc(C(=O)COc2ccc(NC(=O)c3ccccc3[N+](=O)[O-])cc2)cc1C	-10%	4
O=C(O)c1cccc(NC(=S)NC(=O)c2cccnc2)c1	-2%	-5
CC(C)=C1C2CCC1C(C(=O)N1CCN(c3ccccc3Cl)CC1)C2C(=O)O (centres undefined)	11%	1
Cc1ccc(-c2nnc(N3CCN(C(=O)CSc4nc(C)cc(C)n4)CC3)c3ccccc23)cc1	13%	6
O=C(CC(=O)c1ccccc1)Nc1ccc(F)c(Cl)c1	20%	1
CCN1CCN(CCCCSc2ccccc2)CC1	4%	2
C=CCC1(NCc2ccccc2)CCN(CC)CC1	21%	4
CC1(C)CCCC2=C1CC1C(=O)NC(=O)C1C2 (centres undefined)	-2%	-10
N#Cc1cn(Cc2ccc(Br)cc2)c2ccccc12	-6%	-2
CCOC(=O)CCCSc1nc2c(c(C(F)(F)F)c1C#N)CC(C)CC2 (centres undefined)	-4%	0
Cc1cc(N2CCN(S(=O)(=O)c3ccc(C)c(C)c3)CC2)c2ccccc2n1	1%	-3
N#Cc1cn(-c2ccccc2)nc1-c1ccncc1	50%	7
Cc1cc(C)nc(SCc2cc(-c3nn(C)c(=O)c4ccccc34)ccc2C)n1	-10%	-1
COc1cc(C(=O)O)c(CNC(=O)CSc2nnnn2C)c(OC)c1OC	-3%	-5
O=C(Cn1cc(C(=S)N2CCOCC2)c2ccccc21)Nc1ccc2c(c1)OCO2	7%	-1
CCOc1cc(S(=O)(=O)NC2CC(C)(C)NC(C)(C)C2)c(C)cc1C	12%	2
Cc1ccc(-c2nnc3c4cnn(Cc5ccccc5)c4ncn23)cc1	-2%	-1
CCn1c(SCC(=O)Nc2ccc(-c3nc4ccc(C)cc4s3)cc2)nnc1-c1cccnc1	9%	-3

# (next part)
molecule	motility	motility viability
CC1Cc2ccccc2N1c1ncnc(N)c1[N+](=O)[O-] (centres undefined)	7%	1
COc1cc(OC)c(NC(=O)c2cnccn2)cc1Cl	0%	-3
COC(=O)c1ccc(CSc2nnc(CSc3nc4sc(C)c(C)c4c(=O)[nH]3)n2-c2ccccc2)cc1	12%	1
O=C(COc1ccc(Cl)cc1Cl)OCC(F)(F)C(F)F	-1%	1
CC(C(=O)NCc1ccc(Cl)cc1Cl)N(c1ccccc1)S(C)(=O)=O (centres undefined)	7%	1
N#Cc1c(-c2ccco2)cc(-c2ccccc2)nc1N	-2%	1
COc1cc2c(cc1NS(C)(=O)=O)oc1ccccc12	-14%	-11
COc1ccc(OCCC(=O)N2CCOCC2)cc1	-1%	-10
O=c1[nH]nc(-c2ccc(NCc3cccnc3)c([N+](=O)[O-])c2)c2ccccc12	1%	0
CCCC(=O)Nc1ccccc1NC(=O)c1ccccc1-c1ccccc1	3%	2
CCOC(=O)N/C(N)=N\c1nc2ccccc2s1	38%	7
COc1ccc(NC(=O)CSc2[nH]c(=O)cc(C)c2C#N)cc1OC	-11%	-5
O=C1C2CC=C(Cl)CC2C(=O)N1Cc1ccoc1 (centres undefined)	-6%	-2
CC(C)(O)C(=O)NNC(=O)Nc1ccc(Br)cc1	11%	-4
O=C(COc1ccc(Cl)cc1Cl)Oc1cccc2cccnc12	22%	1
CCOC(=O)CNC(=O)c1cc(-c2ccc(C)c(C)c2)nc2ccccc12	6%	-2
CC(=O)NS(=O)(=O)c1ccc(NC(=O)C2CC(Cl)=CCC2C(=O)O)cc1 (centres undefined)	-13%	-8
CCC1(N(C(C)=O)c2ccc(OC)cc2)C(=O)c2ccccc2C1=O	-8%	0
CCn1cc(Br)c(C(=O)NCc2ccco2)n1	8%	-2
COC(=O)c1cc(C(=O)NC(C)c2ccccc2)c(=O)[nH]c1C (centres undefined)	-12%	-8
COC(=O)c1cc(C)sc1NC(=S)Nc1c(F)c(F)c(Br)c(F)c1F	20%	6
Cc1ccc2cccc(OCCCCOc3ccc([N+](=O)[O-])cc3)c2n1	3%	1
CC12CCC(C(=O)Nc3ccc(Br)cn3)(C(=O)C1=O)C2(C)C (centres undefined)	4%	0
CCOC(=O)c1cccc(NC2=C(Cl)C(=O)N(Cc3ccccc3)C2=O)c1	-5%	-4
C=C(C)Cn1c(Cc2ccc(OC)c(OC)c2)nc2ccccc21	3%	0

# Later entries:
molecule	motility	motility viability
CC(=O)c1cccc(NC(=O)C2CC(=O)N(Cc3ccccc3)C2)c1 (centres undefined)	-14%	-3
CC(=O)c1sc(Nc2ccc(F)c(Cl)c2)nc1N	-4%	-3
S=C(NNC(=S)NC1CCCCC1)NC1CCCCC1	-2%	-4
O=[N+]([O-])c1ccccc1SN(Cc1ccccc1)c1ccccn1	-10%	-9
CSc1ccccc1NC(=S)Nc1ccc(F)cc1F	3%	-3
CCOc1ccccc1OC(=O)c1ccc(Cl)c(Cl)c1	-3%	-3
CN(C)CCNC(=O)NCC12CC3CC(C1)CC(c1ccccc1)(C3)C2	24%	7
CCC(Sc1ccccn1)C(=O)Nc1nnc(C)s1 (centres undefined)	12%	0
CCOC(=O)C1CCCN(C(=O)C2CCCO2)C1 (centres undefined)	-10%	-6
CC12CCC(C(=O)Oc3ccc(-c4ccc(C#N)cc4)cc3)(C(=O)C1=O)C2(C)C (centres undefined)	4%	2
Cc1cc(Cl)ccc1OCCCC(=O)NCc1cccs1	1%	5
COC(=O)c1c(C)c(=O)[nH]c2ccccc12	-7%	-3
COCC(=O)NNC(=O)Nc1ccc(F)c(Cl)c1	-6%	-5
CN(c1cccc(NS(C)(=O)=O)c1)S(C)(=O)=O	1%	1
COc1c(Cl)ccc(Cl)c1C(=O)NC(=O)N1CCOCC1	-20%	1
O=C(Nc1ccn(Cc2ccc(Cl)cc2)n1)C1CCCO1 (centres undefined)	24%	6
Cc1nc(/N=C\N(C)C)sc1C(=O)Nc1ccccc1	-1%	-4
Cc1ccc(N2C=NNC(=O)C2)cc1C	-6%	-3
CS(=O)(=O)c1ccc2nc(NC(=O)CN3C(=O)c4ccccc4C3=O)sc2c1	-14%	-11
O=C(COc1cccc2ccccc12)c1ccc(F)cc1	0%	22
O=S1(=O)CCC(NS(=O)(=O)/C=C/c2ccccc2)C1 (centres undefined)	0%	-5
O=C1OC(c2cccc(Cl)c2)=N/C1=C\c1ccccc1OS(=O)(=O)c1ccccc1	15%	1
Cc1ccc(-c2cc(C(F)(F)C(F)F)[nH]n2)cc1	33%	9
COc1c(F)c(F)c(C(=O)NC(=S)Nc2ccc3c(c2)Cc2ccccc2-3)c(F)c1F	-15%	-6
O=C(Nc1ccc2c(c1)OCCO2)NC12CC3CC(CC(C3)C1)C2	7%	2

# In a second layout: entries from further up.
CC12CCC(C(=O)Oc3ccc(-c4ccc(C#N)cc4)cc3)(C(=O)C1=O)C2(C)C (centres undefined)
  motility: 4%	motility viability: 2

Cc1cc(Cl)ccc1OCCCC(=O)NCc1cccs1
  motility: 1%	motility viability: 5

# Other entries follow:
molecule	motility	motility viability
CC(C)COC(=O)Oc1cccc(Br)c1	-15%	-4
O=[N+]([O-])c1ccc(N2CCN(S(=O)(=O)c3cc(Br)ccc3F)CC2)cc1	-18%	-11
O=[N+]([O-])c1cccc(Cn2c(-c3ccccc3)nnc2-c2ccccc2)c1	89%	76
CN(Sc1ccc([N+](=O)[O-])cc1)C1CCS(=O)(=O)C1 (centres undefined)	10%	19

# Assay outcomes deposited in PubChem by Southern Research Institute.
